High-throughput results (PubChem)
Lassa entry inh – Lassa virus entry inhibition | Potency, µM (titrated, usually from 37.9 µM), inactives show at the highest dose activity change, negative = inhibition, usual class: inhibitors | hit rate 1.2% among 300,000 | Lassa virus pseudotype entry inhibition, cell reporter; control for the full effect not named in the record | AID 540256; active means well fitted inhibition curve with a large enough effect; inconclusive means small, poorly fitted or top-dose-only effect, or effect the other way; inactive means flat fitted curve, though single readings scatter; tested in HEK293 cells; also: % is scaled to controls: 0 for no effect and ±100 for the full control effect; nearly all actives have a fitted effect of over 50% in size; luciferase read-out
NS1 inh – influenza NS1 inhibition; hit rate 0.4% among 270,000; Potency, µM (titrated, usually from 46.1 µM), for the others: at the highest dose activity, positive = more growth; S. cerevisiae slowed by influenza A NS1, growth recovery by OD600; also: actives are rising curves; nearly all actives have a fitted effect of over 50% in size
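A cell-based growth assay was used: compounds that relieve NS1-induced slow growth of budding yeast raise OD600. Assay medium was yeast nitrogen base with ammonium sulphate and -URA supplement, pH 6.0, with 2% galactose.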
SARS PLP yeast – SARS-CoV PLP inhibition in yeast; AID 485353; hit rate 0.19% among 330,000; S. cerevisiae expressing SARS-CoV PLpro, growth rescue; control for the full effect not named in the record; Potency, µM (highest dose often 32.9 µM), for inactives: top-dose activity, positive = growth rescue; also: 0% is about no effect; nearly all actives have a fitted effect of over 55% in size; growth read by luminescence after 48 h
Cruzain noTriton – inhibitors of Trypanosoma cruzi cruzain without detergent; purified cruzain, Z-FR-AMC fluorescence, no detergent; Potency, µM, inactives show max response, negative = inhibition, usual class: inhibitors; hit rate 2.3% among 200,000; AID 1476; active = well fitted curve in the direction sought with a large enough effect; inconclusive = small, poorly fitted or top-dose-only effect, or another doubt; inactive = no such curve, though single readings can be large; an effect the other way counts as inactive or inconclusive;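 also: plate controls were enzyme without inhibitor for no effect and buffer without enzyme for full effect; nearly all actives have a fitted effect of over 40% in size; top concentration of the series not given in the record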
Target sequence (P25779 123-467 limits assumed): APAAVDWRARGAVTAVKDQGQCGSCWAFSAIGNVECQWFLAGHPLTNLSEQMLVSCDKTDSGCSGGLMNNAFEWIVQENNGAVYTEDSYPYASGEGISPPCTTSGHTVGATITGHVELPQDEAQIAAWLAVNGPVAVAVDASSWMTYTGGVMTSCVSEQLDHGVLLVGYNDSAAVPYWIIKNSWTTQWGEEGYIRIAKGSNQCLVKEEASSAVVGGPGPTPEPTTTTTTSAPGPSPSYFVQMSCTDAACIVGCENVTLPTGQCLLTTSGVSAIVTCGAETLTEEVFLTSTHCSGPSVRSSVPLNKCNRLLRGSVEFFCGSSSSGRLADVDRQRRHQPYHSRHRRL
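Detergent-free condition (0.00005% Triton X-100) in acetate buffer pH 5.5 with DTT. 1.5 nM enzyme and compound were pre-mixed 15 min, then 2 uM Z-FR-AMC substrate added; reaction progress from fluorescence change between first and third reads (60 s).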
StopGo reporter – FMDV 2A StopGo reporter, luciferase signal | Potency, µM (doses to about 57.9 µM), for the others: top-dose signal change, negative = less light | human cells with a luciferase reporter of 2A StopGo recoding; control for the full effect not named in the record | hit rate 1.2% among 410,000; active = well fitted falling curve with a large enough effect; inconclusive = small, poorly fitted or top-dose-only effect; inactive = no such curve, though single readings can be large or run the other way; tested in HEK293T cells; also: % is scaled to controls: 0 for no effect and ±100 for the full control effect; nearly all actives have a fitted effect of over 45% in size; luciferase light after 4 h
Marburg entry inh – inhibitors of Marburg virus binding or cell entry. Marburg virus pseudotyped entry inhibition, cell reporter; control for the full effect not named in the record; about a third of the inactives were read at about 46 µM. Potency, µM (highest dose often 37.8 µM), inactives show at the highest dose activity change, negative = inhibition, actives largely listed as inhibitors. hit rate 1.8% among 300,000; active = well fitted inhibition curve with a large enough effect; inconclusive = small, poorly fitted or top-dose-only effect, or effect the other way; inactive = flat fitted curve, though single readings scatter; tested in HEK293 cells; about a fifth of its hits are not listed in these tables; also: % is scaled to controls: 0 for no effect and ±100 for the full control effect; luciferase read-out
RE007 growth inh – less growth of the S. pombe RE007 Vpr strain | hit rate 0.21% among 360,000 | S. pombe RE007 Vpr strain, BacTiter-Glo ATP luminescence, 24 h; control for the full effect not named in the record | AID 651644 | Potency, µM (titrated, usually from 92.2 µM), for inactives: top-dose activity change, negative = less growth; active = well fitted falling curve with a large enough effect; inconclusive = small, poorly fitted or top-dose-only effect; inactive = no such curve, though single readings can be large or run the other way;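 also: % is scaled to controls: 0 for no effect and ±100 for the full control effect; nearly all actives have a fitted effect of over 50% in size; the assay follows cell death caused by Vpr and the record does not say whether a fall means rescue or toxicity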
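Fission yeast strain RE007, carrying one chromosomally integrated HIV-1 vpr copy, was seeded at OD 0.01 in PMG+AL medium with 23 nL pinned compound. After 24 h at 30 °C and 99% humidity, viability was read by BacTiter-Glo luminescence.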
Cruzain inh Det – cruzain (T. cruzi) inhibition with detergent; purified cruzain, Z-FR-AMC fluorescence, 0.01% Triton; Potency, µM, without a hit: max response, negative = inhibition, usual class: inhibitors; AID 1478; hit rate 0.43% among 200,000; active = well fitted curve in the direction sought with a large enough effect; inconclusive = small, poorly fitted or top-dose-only effect, or another doubt; inactive = no such curve, though single readings can be large; an effect the other way counts as inactive or inconclusive;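 also: plate controls were neutral wells for no effect and buffer without enzyme for full effect; nearly all actives have a fitted effect of over 40% in size; top concentration of the series not given in the record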
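15 min RT preincubation of 1.5 nM cruzain with compound, then 2 uM Z-FR-AMC added; kinetic AMC fluorescence, 60 s delta. Triton X-100 0.01%, pH 5.5.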
The depositor's hits bear a star; ? = inconclusive; · = not tested or not shown; & = joins results of further samples; [ ] = dose if it differs, or a comment. Unless noted, calls follow the shape of the dose curve; as a rule, active means well fitted rising curve with a large enough effect; inconclusive means small, poorly fitted or top-dose-only effect; inactive means no such curve, though single readings can be large or run the other way. Potency is read from the fitted curve at half-maximal effect.

SMILES | Lassa entry inh | NS1 inh | SARS PLP yeast | Cruzain noTriton | StopGo reporter | Marburg entry inh | RE007 growth inh | Cruzain inh Det
O=C(CNC(=O)c1ccccc1)OC1CCCCC1 | ? | · | 0% | · | 30% | ? | 23% | ·
CCCN(C(=O)Cn1ncc2c([nH]c3ccccc32)c1=O)c1ccccc1C | -16%[46.1 µM] | ? | 1% | · | -10% | -34%[46.1 µM] | 18% | ·
Cc1ccc(S(=O)(=O)N2C(=O)CCC2C(=O)N2CCN(C)CC2)cc1 (configuration not stated) | 23% | -2% | · | -1% | 10% | 27% | -1% | 3.3%
O=C(CS(=O)c1ccc(F)cc1)Nc1ccccc1Cl (configuration not stated) | -2% | -3% | 0% | · | 14% | 24%[46.1 µM] | 5% | ·
NC1=NN(c2cccc(C(=O)O)c2)C(=O)C1 | 21% | 24% | -5% | 9% | -15% | ? | -16% | -1.9%
CCc1ccc(NC(=O)C2CCCN(S(=O)(=O)c3ccc4c(c3)oc(=O)n4C)C2)cc1 (configuration not stated) | 0%[46.1 µM] | · | · | -5% | -2% | -1%[46.1 µM] | · | 0.2%
Cc1ccc(S(=O)(=O)SCCCSS(=O)(=O)c2ccc(C)cc2)cc1 | 8%[46.1 µM] | · | · | · | -8% | 13% | ? | ·
Cc1cccc(N2CCN(S(=O)(=O)c3ccc(Cl)nc3)CC2C)c1 (configuration not stated) | ? | · | -6% | · | -10% | ? | -4% | ·
Cc1ccccc1CSc1nnc([C@@H]2CCCN2)o1 | 5%[46.1 µM] | 6% | 1% | · | 8% | ? | 22% | ·
COc1ccc2c(c1OC)CN(C)CCc1cc3c(cc1C(O)C2)OCO3 (configuration not stated) | 5% | -9% | ? | -10% | ? | -3%[46.1 µM] | 25% | 0.9%
Cc1c(OC(C)C(=O)NCCCN2CCOCC2)ccc2c3c(c(=O)oc12)CCC3 (configuration not stated) | · | -11% | -1% | · | -3% | · | -7% | ·
COc1ccccc1C1C2=C(COC2=O)Nc2cc3c(cc21)OCO3 (configuration not stated) | 1% | 8% | -1% | -11% | -23% | 5% | 32%[3.69 µM] | -1.7%
CCOc1ccc(N(CC(=O)Nc2ccc(OC)cc2)S(=O)(=O)c2c(C)[nH]c(=O)[nH]c2=O)cc1 | 3%[46.1 µM] | · | 1% | · | -20% | -1%[46.1 µM] | -13% | ·
Cc1nonc1NC(=O)CSc1nc(C23CC4CC(CC(C4)C2)C3)nc2ccccc12 | · | 4% | 1% | · | -22% | · | 5% | ·
CC(C)CC(=O)N(Cc1ccccc1)S(=O)(=O)c1ccc2c(c1)oc(=O)n2C | 14%[46.1 µM] | · | · | -1% | -20% | 5%[46.1 µM] | · | -2.7%
CN1CCN(C(=O)CN2C(=O)NC(C)(c3ccc4ccccc4c3)C2=O)CC1 (configuration not stated) | 2% | · | -2% | · | -14% | -2% | 3% | ·
COC(=O)c1cc(OC)c(OC)cc1NC(=O)C1CCCO1 (configuration not stated) | 2% | 0% | -2% | 10% | 0% | -7% | 17% | -7.8%
O=C(Nc1cccc(F)c1)C1CCN(C(=O)c2ccc(Br)cc2)CC1 | -2% | -12% | -6% | -4% | -13% | -1% | -2% | -4.5%
C=CCNC(=S)Nc1c(C(=O)OC)[nH]c2cc(OC)ccc12 | · | 5% | 1% | · | 25% | · | 20% | ·
CN(C[C@H](c1ccccc1)N(C[C@H](Cc1ccccc1)N(CCc1ccccc1)N=O)N=O)N=O | · | 10% | 0% | · | 30% | · | -6% | ·
Cc1cc(C(=O)N/N=C/c2ccc(C)s2)n[nH]1 | ? | 11% | 0% | · | 0% | -3%[46.1 µM] | -2% | ·
COc1ccc(/C(C)=N\Nc2nc(-c3ccc(Cl)cc3)cc(C(F)(F)F)n2)cc1OC | -22% | 14% | -18% | ? | ? | 21% | -17% | -9.5%
CS(=O)(=O)c1ccccc1C(=O)Nc1cccc(-c2nc3ccccc3o2)c1 | · | -8% | -2% | · | ? | · | 0% | ·
O=C(CN1CCCCCCC1)N/N=C/c1ccc([N+](=O)[O-])o1 | ? | 6% | -1% | · | -9% | ? | -6% | ·
COc1ccc2nc(NCCCO)[nH]c2c1 | 8% | 7% | 1% | -19% | 3% | 17% | -1% | -13%
Cc1cc(=O)[nH]c2nnc(SCC(N)=O)n12 | ? | · | · | 13% | 4% | · | · | 0.3%
Cc1cc(C)c(Cn2c3ccccc3c3cnn(CC(=O)NCc4ccc(Cl)cc4)c(=O)c32)c(C)c1 | 23%[46.1 µM] | · | · | 9% | 5% | 19%[46.1 µM] | · | -1.3%
CN(Cc1ccccc1)C(=O)COC(=O)CNS(=O)(=O)c1ccc2ccccc2c1 | 3% | · | · | · | -6% | 30% | -3% | ·
CCOc1ccc(CC2C(=O)NC(=O)N(c3ccc(CC)cc3)C2=O)cc1 (configuration not stated) | 4% | 8% | 1% | 3% | 40%[activator] | 2% | -4% | 1.5%
Cc1cc(C)cc(NC(=O)Cn2cc(S(=O)(=O)NC(C)(C)C)c(S(=O)(=O)NC(C)(C)C)c2)c1 | 6%[46.1 µM] | · | · | 8% | -6% | · | · | -10%
COc1ccc(-c2cc3c(=O)n(CC(=O)NCCCN4CCC(N5CCCCC5)CC4)ncn3n2)cc1 | · | 9% | 1% | · | 1% | · | -12% | ·
COc1ccc(/C=N/OCC(=O)Nc2nc3ccccc3s2)cc1OC | 0% | 2% | 6% | 21% | -4% | 15% | -22% | -13%
CN(C)c1ncccc1-c1nc2ccccc2s1 | 11% | -5% | -1% | · | -2% | 4%[46.1 µM] | 1% | ·
CCOc1ccccc1NC(=O)CN(CCc1ccccc1)S(=O)(=O)c1ccc(C)cc1 | -6%[46.1 µM] | · | · | -22% | 22% | · | · | -4.4%
O=c1[nH]c(C2CCN(S(=O)(=O)/C=C/c3ccccc3)CC2)nc2c1nnn2Cc1ccc(F)cc1 | ? | ? | 2% | · | 1% | 7.9µM* | -10% | ·
O=C(NC1CCSC1)c1cccc(Cl)c1 (configuration not stated) | -1% | 6% | 0% | · | -8% | ? | 0% | ·
CC(=O)NC1=NN(C(C)=O)C(C)(c2ccco2)S1 (configuration not stated) | -26%[46.1 µM] | -30% | -7% | · | -4% | 3.2µM* | 3% | ·
O=[N+]([O-])c1c(NCc2ccccc2)cc(N2CCc3ccccc3C2)c2nonc12 | -2% | -2% | -5% | ? | -17% | ? | 1% | -1.5%
O=C(Cc1cccs1)N(CC1CCCO1)C1(C(=O)NC2CCCCC2)CCCCC1 (configuration not stated) | · | · | 3% | · | -7% | ? | 0% | ·
CC(C)COc1ccc(CSCCNC(=S)Nc2ccccc2)cc1 | ? | -13% | -27% | 0% | -12% | ? | 3% | -1.3%
O=C(NC(=S)N1CCOCC1)c1cn(-c2ccccc2)nc1-c1ccc(F)cc1 | 5% | · | -5% | · | 1% | -10% | -24% | ·
O=C(c1cccs1)C1C(c2ccc(Br)cc2)NC(=S)NC1(O)C(F)(F)F (configuration not stated) | -11% | 3% | 1% | -9% | -29% | ? | 20% | -6.6%
CCOC(=O)c1sc2nc(C)c3c(c2c1N)CC(C)(C)OC3 | 10% | -10% | 3% | 9% | -21% | 1% | 5% | -4.8%
COc1ccc(Br)cc1CN1CCN(CCO)CC1 | 46%[14.3 µM] | -3% | 0% | -4% | 8% | 4% | -30% | -2.6%
CC(C)CNC(=O)c1cccc(NC(=O)COc2cccc([N+](=O)[O-])c2)c1 | -9%[46.1 µM] | 1% | 0% | · | -19% | ? | 11% | ·
CC(C)(C#CCN1CCCC1)OCCC#N | -3% | 5% | -4% | 0% | -11% | 0% | 14% | 3.0%
COc1cc(/C=C/c2nc3ccccc3c(=O)n2-c2ccc(O)cc2)ccc1O | -19%[46.1 µM] | 8% | 0% | · | -12% | ? | 11% | ·
COc1cccc2c(SCC(=O)N/N=C/c3ccc(O)c(O)c3)cc(C)nc12 | -14%[46.1 µM] | · | -1% | · | ? | ? | -17% | ·
CCOC(=O)C1(CCOC)CCN(C(C)CCc2ccc(OC)cc2)CC1 (configuration not stated) | · | 2% | 0% | · | -17% | · | 16% | ·
CCOC(=O)c1sc2ncn(CC(=O)Nc3cc(C)cc(C)c3)c(=O)c2c1C | ? | · | · | 5% | -24% | ? | · | -3.6%
New compounds follow.
SMILES | Lassa entry inh | NS1 inh | SARS PLP yeast | Cruzain noTriton | StopGo reporter | Marburg entry inh | RE007 growth inh | Cruzain inh Det
CCCN(CCC)CCCNC(=O)Cn1cnc2sc(C)c(S(=O)(=O)N3CCC(C)CC3)c2c1=O | 7%&15%[46.1 µM] | -13% | 1% | 2% | -5%&7% | -4%&-29%[46.1 µM] | 2% | -0.9%
COc1cccc(CN(C)C(=S)Nc2cccc(C)c2)c1 | ? | · | -3% | · | 3% | -12%[46.1 µM] | -7% | ·
O=C(NCc1ccccc1)c1ccc(CN(c2ccccn2)S(=O)(=O)c2ccccc2)cc1 | -2% | -59% | 1% | 3% | 14% | 6% | -1% | -6.2%
O=C(Nc1ccccc1C(=O)NCCc1ccccc1)c1cnccn1 | 1%[46.1 µM] | -1% | 2% | · | 22% | ? | -20% | ·
CN(CC(=O)Nc1ccccc1Cl)C(=O)Cn1cc(C(F)(F)F)cc(Cl)c1=O | ? | · | -3% | · | -4% | 3% | -7% | ·
Cc1cccc(OCCOC(=O)Nc2ccccc2)c1 | -2% | -6% | -10% | 8% | -5% | 6% | -7% | -6.6%
Cc1ccc(Cn2cc(CCC(=O)NCC(C)c3ccccc3)c3ccccc32)cc1 (configuration not stated) | -26%[46.1 µM] | · | · | -15% | -7% | · | · | -2.1%
Cc1cccc(NS(=O)(=O)c2cccc(C(=O)N3CCCC3)c2)c1 | 19%[46.1 µM] | · | 0% | · | 4% | -13% | 7% | ·
O=[N+]([O-])c1ccc(CCNc2cccc3ccccc23)c([N+](=O)[O-])c1 | ? | 15% | -11% | 25µM* | -27% | 0% | -8% | -0.9%
COc1ccc(CNC(=O)c2cc(-c3cccs3)on2)cc1 | 15% | -70% | -6% | -10% | 63%[activator] | -7% | -10% | 5.3%
